# Screening results (PubChem BioAssay)
# PK Bst = pyruvate kinase (B. stearothermophilus) modulation. partly purified Bacillus stearothermophilus pyruvate kinase, luminescence ATP production; ribose 5-phosphate activator present at AC10. Potency, µM. 51,000 tested, 1.2% active; in the data active means potency below about 11 µM; inconclusive means mostly about 12 µM to 25 µM; inactive means weaker than that;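 the screen sought inhibitors and activators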;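 note: potency is the fitted concentration of half-maximal effect; scaled between full activation by ribose 5 phosphate and full inhibition by luteolin; about four in five hits inhibit and the cells do not say which; series up to 57 µM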
# YjeE inh = inhibitors of E. coli YjeE (TsaE). AID 605. purified YjeE, fluorescence polarisation of a bound ADP probe. 71,000 tested, 0.05% active. P0AF67. Potency, µM; active = well fitted falling curve; inconclusive = weaker or top-dose-only fall, or a rising curve; inactive = flat or poorly fitted curve;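 note: top concentration of the series not given in the record; excess ADP was the control for the full effect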
#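 Purified YjeE (10 uM) with BODIPY Texas Red-labeled ADP probe (2 uM); compounds pin-transferred, 15 min at room temperature. Binding inhibition read as decreased fluorescence polarization; ADP titration as control.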
# Active calls of the source: *; i = inactive; ? = inconclusive; . = no result given; & = joins results of further samples. These rows are one share of the data; rates above refer to the full screens.
Compound,YjeE inh,PK Bst
COc1ccc(-c2noc(CCC(=O)N3CCN(Cc4ccccc4)CC3)n2)cc1,i,>57
O=C(CCN1CCc2ccccc2C1)Nc1ccc(F)cc1,i,>57
COc1cccc(-n2c(SCC(N)=O)nnc2-c2ccncc2)c1,i,>57
Clc1ccc(Cl)c(-c2nn3c(Cn4cnc5ccccc54)nnc3s2)c1,i,>57
Nc1nonc1-n1nncc1-c1ccccc1,i,>57
CCc1cc2c(NCCN3CCCCC3)ncnc2s1,i,.
Cc1ccc(-c2nnc3c4ccccc4c(C)nn23)cc1NC(=O)CN1CCOCC1,i,>57
COCCCNC(=O)CC(NS(=O)(=O)c1ccc(Cl)cc1)c1ccco1 (centres undefined),i,>57
CCS(=O)(=O)N1CCC(C(=O)NCCc2ccc(OC)c(OC)c2)CC1,i,>57
OC(CCN1CCOCC1)(c1ccc(Cl)cc1)C1CCCCC1 (centres undefined),i,>57
O=C1CCCC2=C1C(c1cccs1)n1nc(SCc3ccccc3F)nc1N2 (centres undefined),i,>57
C=CCSc1nc2c(c(=O)n(C)c(=O)n2C)n1CC,i,>57
CCn1nnnc1SCC(=O)N(C1CCCCC1)C1CCCCC1,i,>57
CC(=O)OCc1cc2cc(C)ccc2[nH]c1=O,i,.
Cn1c(=N)n(CC(O)c2cccc3ccccc23)c2ccccc21 (centres undefined),i,>57
CN1C(C(=O)Nc2ccccn2)=C(O)c2ccccc2S1(=O)=O,i,>26&>26
O=C(CN1CCOCC1)N1CCN(S(=O)(=O)c2ccccc2)C1c1ccccc1 (centres undefined),i,>57
C=CCn1c(CC#N)nnc1N1CCOCC1,i,>57
CCc1cc(=O)oc2cc(OC(C)C(=O)O)c(Cl)cc12 (centres undefined),i,>57
CCSc1oc(-c2ccco2)nc1S(=O)(=O)c1ccccc1,i,>57
O=C(CN(Cc1ccccc1F)C(=O)c1ccco1)NCc1ccc(F)cc1,i,>57
COc1ccc(CNc2nc(NCc3ccc(OC)cc3)n(S(C)(=O)=O)n2)cc1,i,>57
COCC(=O)Nc1c(C(=O)Nc2ccccc2OC)oc2ccccc12,i,>57
O=C(Cn1cnc2c(nnn2Cc2ccccc2F)c1=O)N1CCN(c2ccccc2)CC1,i,>57
CC(=O)NCCc1nc2ccccc2[nH]1,i,.
CCCCCC(=O)Nc1ccc2oc(-c3ccncc3)nc2c1,i,.
CCCc1nc2n[nH]c(N)c2c2c1CCC2,i,>57
CCOc1ccccc1CNc1ccc(N2CCOCC2)c(C(=O)O)c1,i,>57
CCSc1nnc(Nc2ccccc2)s1,i,>11
O=C(CC1(C(F)(F)F)OCCO1)Nc1ccc2c(c1)OCO2,i,>57
Cn1c(CCNC(=O)c2ccco2)nc2cc(NC(=O)C3CCCCC3)ccc21,i,>57
CC1CCc2c(nc3ncnn3c2N2CC(C)OC(C)C2)C1 (centres undefined),i,>57
CC1(C)CC(=O)C(C=Nc2ccccc2)=C(O)C1,i,.
C=CCn1c(=O)c2ccccc2n2c(SCC(=O)/C(C#N)=C(\C)N)nnc12,i,>57
CCC(=O)Nc1ccc(NC(=O)c2ccco2)cc1,i,.
CCN(CC)C(=O)CSc1nc2cccnc2n1-c1ccccc1OC,i,>57
O=C(NC1=NCCS1)C1Cc2ccccc2CN1C(=O)c1ccccc1 (centres undefined),i,>57
CCn1c(SCC(=O)Nc2cc(C)ccc2C)nc2c(c1=O)SC(C)C2 (centres undefined),i,.
CCSc1nc(C)cc(Oc2ccc(=O)n(C)n2)n1,i,>57
Oc1ccccc1C1=Nc2ccccc2N=C(c2ccco2)C1,i,>57
COC(=O)c1[nH]c2ccccc2c1NC(=O)CN1CCN(c2cccc(OC)c2)C(C)C1 (centres undefined),i,>57
Cn1c(=O)c(C(=O)Nc2cnccn2)c(O)c2ccccc21,i,>57
CC(=O)N1CCN(c2ccccc2NC(=O)COc2ccc(Cl)cc2Cl)CC1,i,>57
Cc1cc2c(cc(C(=O)OC(C(=O)NCc3ccco3)C(C)C)n2C)o1 (centres undefined),i,>57
Cc1nnc(SCC(=O)NCc2ccc3c(c2)OCO3)[nH]c1=O,i,>57
N#Cc1c(NC(=O)CSc2ncn(-c3ccccc3)n2)sc2c1CCCC2,i,>57
Cc1c(NC(=O)c2cc(-n3cnnc3)ccc2Cl)cccc1-c1nc2ccccc2o1,i,5.7*
COC(=O)c1nc2n(n1)C(c1cccc(Cl)c1)C1=C(CCCC1=O)N2 (centres undefined),i,.
CCc1nc(Sc2nc(C)cc(C)n2)c2oc3ccccc3c2n1,i,>57
Cc1cc2c(cc1C)C(=O)NC(C)(C)C2,i,.
Cc1nc(N2CCCC2)c2ccsc2n1,i,.
COc1cccc(Cn2c(=O)c(-c3ccc(F)cc3)nc3cnc(OC)nc32)c1,i,.
COc1cc(NC(=O)Nc2ccccc2OC)c(OC)cc1NC(=O)CN1CCCCC1,i,>57
COC(=O)C1=C(N)Oc2cc(C)oc(=O)c2C1c1ccncc1 (centres undefined),.,>26
Cc1cc(NC(=O)c2ccc(NC(=O)c3cccs3)cc2)no1,i,>57
CC(=O)OCC(OC(C)=O)C(OC(C)=O)C(OC(C)=O)C(=O)Nc1ccc(C)cc1 (centres undefined),i,>57

# Following part
Compound,YjeE inh,PK Bst
O=C(COc1ccc2ccccc2c1Br)Nn1cnnc1,i,i
CCc1cc(Cl)c(OC)c(C(=O)NC[C@@H]2CCCN2CC)c1O,i,.
Cc1cccc(OCCn2c(CCCO)nc3ccccc32)c1,i,>57
N=c1n(CCN2CCCCC2)c2ccccc2n1CC(O)COc1ccccc1 (centres undefined),i,>57
CCCNc1ncnc2c1cnn2-c1ccc(OC)cc1,.,?
c1ccc(NCc2nc(-c3ccccc3)no2)cc1,i,>57
Cn1cnc2c(sc3nc(N4CCOCC4)c4c(c32)CC(C)(C)OC4)c1=O,i,.
CCCc1nc(N2CCN(C)CC2)c2sc(=S)n(-c3ccccc3)c2n1,i,.
O=C(CCN1C(=O)c2ccccc2C1=O)Nc1ccc(-c2cn3ccsc3n2)cc1,i,>57
CN1C(=O)N(C)C2(CC1(C)C)CC(C)(C)N(C)C(=O)N2C,i,>57
CC1CCc2c(sc3nc(C4CC4)nc(SCC(=O)NCc4ccco4)c23)C1 (centres undefined),i,.
N/C(CSc1nc(-c2ccccc2)c(-c2ccccc2)o1)=N\O,i,.
COc1ccc(CNc2n[nH]c(NCc3ccc(OC)c(OC)c3)n2)cc1OC,i,>57
O=C(NCN1C(=O)C2C3C=CC(C3)C2C1=O)Nc1nncs1 (centres undefined),i,>57
Cc1ccc(-n2nc(-c3cccs3)cc2C(=O)NCC2CCCO2)c(C)c1 (centres undefined),i,>57
O=C(COc1ccc(Cl)cc1)Nc1ccccc1CO,.,>26

# Profiles, looked up by structure. Values in the order: YjeE inh	PK Bst
# Cc1nc(N2CCCC2)c2ccsc2n1 in the list: i	.
# O=C(CCN1CCc2ccccc2C1)Nc1ccc(F)cc1 in the list: i	>57
# COC(=O)c1nc2n(n1)C(c1cccc(Cl)c1)C1=C(CCCC1=O)N2 (centres undefined) in the list: i	.
# CCc1nc(Sc2nc(C)cc(C)n2)c2oc3ccccc3c2n1 in the list: i	>57
# Oc1ccccc1C1=Nc2ccccc2N=C(c2ccco2)C1 in the list: i	>57

# (listing goes on)
Compound,YjeE inh,PK Bst
COc1ccc(CCNC(=O)CN2C(=O)c3ccccc3S2(=O)=O)cc1,i,>57
COc1cc(OC)cc(C(=O)N2CCN(S(C)(=O)=O)CC2)c1,i,>57
CCOC(=O)N1CCN(c2nc(C)c3c(n2)CC(C)CC3=O)CC1 (centres undefined),i,>57
Cc1ccccc1-n1nnnc1SC1CCOC1=O (centres undefined),i,>57
COc1cccc(OCCNC(=O)c2cccc(OC)c2)c1,i,>57
COCCNC(=O)c1ccc2c(c1)ncn2-c1ccc(F)c(F)c1,i,>57
O=C(Cn1cc2c(n1)CCCC2)NCc1cccnc1,i,.
O=C(Nc1ccc2c(c1)OCCO2)C1CCCN(c2ncccn2)C1 (centres undefined),i,?

# With a hit mark in PK Bst, of those listed so far:
Compound,YjeE inh,PK Bst
Cc1c(NC(=O)c2cc(-n3cnnc3)ccc2Cl)cccc1-c1nc2ccccc2o1,i,5.7*

# More entries follow.
Compound,YjeE inh,PK Bst
O=C(c1ccncc1)N1CCC2(CC1)CCN(C(c1ccccc1)c1ccccc1)CC2,i,.
COCCNC(=O)CN1c2ccccc2CC1C (centres undefined),i,>57
CCc1ccc(S(=O)(=O)NCCc2cn3ccccc3n2)s1,i,>57
CC(C)(Oc1ccc(-c2ccco2)cc1)C(=O)O,i,.
Cc1ccc2cc3c(nc2c1)N(Cc1ccco1)CC3,i,>57
CCOc1ccc(NC(=O)C2CCCN(S(=O)(=O)c3c(C)nn(C)c3C)C2)cc1 (centres undefined),i,.
O=C(NC1CCCCC1)c1ccc(N2CCCC2=O)cc1,i,>57
CCN(CC)c1ccc(NC(=O)Nc2cccc(C(C)=O)c2)cc1,i,9*
CCc1nnc(NC(=O)CSc2nnc(-c3cc4ccccc4cc3O)n2CCOC)s1,i,i
CCOc1ccc(S(=O)(=O)NCCC(=O)OCN2C(=O)c3ccccc3C2=O)cc1,i,>57
Cc1cccc2sc(NC(=O)C3CCCN(S(=O)(=O)c4cccc5nonc45)C3)nc12 (centres undefined),i,>57
O=C(NC(C(=O)O)c1ccccc1)c1ccc(S(=O)(=O)N2CCOCC2)cc1 (centres undefined),i,>57
COC(=O)c1cc(NCc2c(F)cccc2Cl)ccc1N1CCOCC1,i,>57
CC1=CC(=O)C2=C(C)CC[C@@H]3[C@@H](OC(=O)[C@H]3C)[C@H]12,i,.
CC(=O)N1c2c(cc(Br)cc2S(=O)(=O)N2CCN(C(=O)c3ccco3)CC2)CC1C (centres undefined),i,>57
CCN(CCCNC(=O)CN(C)S(=O)(=O)c1cccc2nsnc12)c1ccccc1,i,?

# 3 compounds already listed, sorted by count of non-hydrogen atoms, highest first.
Compound,YjeE inh,PK Bst
Cc1cccc2sc(NC(=O)C3CCCN(S(=O)(=O)c4cccc5nonc45)C3)nc12 (centres undefined),i,>57
CCN(CCCNC(=O)CN(C)S(=O)(=O)c1cccc2nsnc12)c1ccccc1,i,?
COC(=O)c1cc(NCc2c(F)cccc2Cl)ccc1N1CCOCC1,i,>57

# Other entries follow:
Compound,YjeE inh,PK Bst
COc1cccc(NC(=O)C2CC(=O)OC23CCOC(C)(C)C3)c1 (centres undefined),i,.
CCOC(=O)C1CCCN(S(=O)(=O)c2cccs2)C1 (centres undefined),i,>57
Cc1nnc(NC(=O)Oc2ccccc2)s1,i,>57
O=C(NCc1ccco1)c1ccc(=O)oc1,.,>11
COc1ccc(OC)c2[nH]c(=O)c(CCNC(=O)c3cc4ccccc4o3)cc12,i,.
CCOc1ccc(-n2c(Cc3cc(=O)[nH]c(=O)[nH]3)nnc2SCc2cccnc2)cc1,i,.
N#CCCN1CCN(S(=O)(=O)c2ccc(C#N)cc2)CC1,i,>57
O=C(CCCc1ccccc1)NC1CCSC1=O (centres undefined),i,.
CCOc1cc(C2/C(=C(\O)c3cc(C)ccc3C)C(=O)C(=O)N2CCN(C)C)ccc1O (centres undefined),i,>57
Cc1cnc(C(=O)OCC(=O)NC2CCCC(C)C2C)cn1 (centres undefined),i,>57
CCCCN(CCCNC(=O)C1CCN(S(=O)(=O)N2CCOCC2)CC1)Cc1ccccc1,i,>57
Cc1c(N=C=O)cccc1N=C=O,i,.
CC(CN1CCCCC1)OC(=O)Cc1ccc(Cl)cc1 (centres undefined),i,>57
COCCn1c(=O)c(-c2ccccc2)nc2cnc(N3CCN(C)CC3)nc21,i,.
CN(C(=O)c1cccc(C#N)c1)c1nnc(-c2cnccn2)s1,i,>57
Cc1n[nH]c(C)c1S(=O)(=O)N1CCN(C2CCCCC2)CC1,i,>57
O=C1CCCC2=C1C(O)(C(F)(F)F)C(=O)N2Cc1ccccc1 (centres undefined),i,>57
CCCCN1CCC(COC(=O)c2cc(Cl)c(N)c3c2OCCO3)CC1,i,.
CCOCC(=O)Nc1ccc(F)c(F)c1,i,>57
Cc1ccc(C)c(N2C(=O)CN=C2Nc2ccccc2Cl)c1,i,>57
CCOc1ccc(N(CC(=O)O)S(=O)(=O)c2ccc(F)cc2)cc1,i,>11
O=C(O)Cc1cc(I)c(Oc2ccc(O)c(I)c2)c(I)c1,i,>11
COc1ccc(CSc2nnnn2C)cc1F,i,.
COc1ccccc1NC(=O)CSc1nc2ccccc2n1C(C)=O,i,>57
FC(F)(F)c1ccccc1-c1cc(NCc2ccccc2)ncn1,i,.
O=C(COc1ncnc2ccc(Br)cc12)N1CCOCC1,i,>57
CCCCC#Cc1nc(N)c2ncn([C@@H]3O[C@@H](C(=O)NCC)[C@H](O)[C@@H]3O)c2n1,i,.
CCCc1c(-c2ccc(O)cc2)nn(-c2ccc(O)cc2)c1-c1ccc(O)cc1,i,.
Cc1cc2ccccc2c(=O)n1CC(=O)NCC(=O)N1CCN(c2ccccc2)CC1,i,>57
COCCNC(=O)C(C)Oc1ccc(Cl)cc1Cl (centres undefined),i,.
CN1C(=O)N(C)C2C1NC(=O)N2C (centres undefined),i,>57
C=C(C)C1CC=C(C)C(O)C1 (centres undefined),i,.
